# RE007 growth inh: qHTS Assay for Inhibitors of the HIV-1 protein Vpr; Potency, µM (series often up to 92.2 µM), inactives show top-dose activity change, negative = less growth; hit rate 0.21% among 360,000; S. pombe RE007 Vpr strain, BacTiter-Glo ATP luminescence, 24 h; control for the full effect not named in the record; active = well fitted falling curve with a large enough effect; inconclusive = small, poorly fitted or top-dose-only effect; inactive = no such curve, though single readings can be large or run the other way;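 note: % is set by controls: 0 for no effect and ±100 for the full control effect; nearly all actives have a fitted effect of over 50% in size; the assay follows cell death caused by Vpr and the record does not say whether a fall means rescue or toxicity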
#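 Fission yeast strain RE007, carrying one chromosomally integrated HIV-1 vpr copy, was seeded at OD 0.01 in PMG+AL medium with 23 nL pinned compound. After 24 h at 30 °C and 99% humidity, viability was read by BacTiter-Glo luminescence.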
# StopGo reporter: High Throughput Screening for Foot and Mouth Disease Virus Antivirals; human cells with a luciferase reporter of 2A StopGo recoding; control for the full effect not named in the record; Potency, µM (doses to about 57.9 µM), for the others: top-dose signal change, negative = less light; hit rate 1.2% among 410,000; AID 1159524, 2015; active = well fitted falling curve with a large enough effect; inconclusive = small, poorly fitted or top-dose-only effect; inactive = no such curve, though single readings can be large or run the other way; tested in HEK293T cells; note: % is set by controls: 0 for no effect and ±100 for the full control effect; nearly all actives have a fitted effect of over 45% in size; luciferase light after 4 h
# SARS PLP yeast: qHTS of Yeast-based Assay for SARS-CoV PLP; Potency, µM (highest dose often 32.9 µM), inactives show at the top dose activity, positive = growth rescue; S. cerevisiae expressing SARS-CoV PLpro, growth rescue; control for the full effect not named in the record; AID 485353, 2010; hit rate 0.19% among 330,000; active means well fitted rising curve with a large enough effect; inconclusive means small, poorly fitted or top-dose-only effect; inactive means no such curve, though single readings can be large or run the other way; note: 0% is about no effect; nearly all actives have a fitted effect of over 55% in size; growth read by luminescence after 48 h
# NS1 function inh: qHTS Assay for Inhibitors of Influenza NS1 Protein Function | hit rate 0.4% among 270,000 | S. cerevisiae slowed by influenza A NS1, growth recovery by OD600 | Potency, µM (highest dose often 46.1 µM), without a hit: at the top dose activity, positive = more growth | AID 2326, 2010; active means well fitted rising curve with a large enough effect; inconclusive means small, poorly fitted or top-dose-only effect; inactive means no such curve, though single readings can be large or run the other way; note: nearly all actives have a fitted effect of over 50% in size
#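 S. cerevisiae expressing influenza A NS1, grown in glucose, washed, then diluted 1:100 into pH 6.0 -URA galactose medium with 23 nl compound. Growth recovery read as OD600; NS1-free strain serves as control.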
# Cruzain inh noDet: qHTS Assay for Promiscuous and Specific Inhibitors of Cruzain (without detergent); Cruzipain (Trypanosoma cruzi), P25779; hit rate 2.3% among 200,000; Potency, µM, for the others: max response, negative = inhibition, usual class: inhibitors; AID 1476, 2009; purified cruzain, Z-FR-AMC fluorescence, no detergent;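 note: plate controls were enzyme without inhibitor for no effect and buffer without enzyme for full effect; nearly all actives have a fitted effect of over 40% in size; top concentration of the series not given in the record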
# Target sequence (P25779 123-467 limits assumed): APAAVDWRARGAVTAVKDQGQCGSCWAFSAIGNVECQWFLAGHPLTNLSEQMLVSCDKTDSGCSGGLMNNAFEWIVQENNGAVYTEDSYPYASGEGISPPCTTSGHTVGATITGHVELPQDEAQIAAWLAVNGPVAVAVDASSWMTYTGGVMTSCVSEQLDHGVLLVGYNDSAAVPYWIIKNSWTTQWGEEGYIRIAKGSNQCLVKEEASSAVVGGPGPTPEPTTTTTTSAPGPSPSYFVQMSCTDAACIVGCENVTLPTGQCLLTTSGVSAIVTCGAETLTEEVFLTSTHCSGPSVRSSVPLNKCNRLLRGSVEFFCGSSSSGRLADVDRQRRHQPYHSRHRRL
#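 Purified cruzain at 1.5 nM, pre-incubated 15 min with compound at room temperature in 100 mM sodium acetate pH 5.5, 5 mM DTT, 0.00005% Triton X-100. Reaction started with 2 uM Z-FR-AMC; AMC fluorescence increase over 60 s gives rate.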
# Marburg entry inh: qHTS for inhibitors of binding or entry into cells for Marburg Virus | Marburg virus pseudotyped entry inhibition, cell reporter; control for the full effect not named in the record; about a third of the inactives were read at about 46 µM | Potency, µM (titrated, usually from 37.8 µM), for inactives: top-dose activity change, negative = inhibition, most hits filed as inhibitors | hit rate 1.8% among 300,000 | AID 540276, 2011; active = well fitted inhibition curve with a large enough effect; inconclusive = small, poorly fitted or top-dose-only effect, or effect the other way; inactive = flat fitted curve, though single readings scatter; tested in HEK293 cells; about a fifth of its hits are not listed in these tables; note: % is set by controls: 0 for no effect and ±100 for the full control effect; luciferase read-out
# Cruzain Triton: qHTS Assay for Promiscuous and Specific Inhibitors of Cruzain (with detergent); Cruzipain (Trypanosoma cruzi), P25779; purified cruzain, Z-FR-AMC fluorescence, 0.01% Triton; Potency, µM, for inactives: max response, negative = inhibition, actives largely listed as inhibitors; hit rate 0.43% among 200,000; AID 1478, 2009;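 note: plate controls were neutral wells for no effect and buffer without enzyme for full effect; nearly all actives have a fitted effect of over 40% in size; top concentration of the series not given in the record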
#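 Detergent-containing run (0.01% Triton X-100) in acetate buffer pH 5.5 with 5 mM DTT: enzyme at 1.5 nM final, 15 min compound preincubation at room temperature, then 2 uM Z-FR-AMC substrate. Activity taken as 60 s fluorescence increase at 360/450 nm.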
# LASV entry inh: qHTS for Inhibitors of binding or entry into cells for Lassa Virus | hit rate 1.2% among 300,000 | Lassa virus pseudotype entry inhibition, cell reporter; control for the full effect not named in the record | Potency, µM (doses to about 37.9 µM), without a hit: at the top dose activity change, negative = inhibition, usual class: inhibitors; active means well fitted inhibition curve with a large enough effect; inconclusive means small, poorly fitted or top-dose-only effect, or effect the other way; inactive means flat fitted curve, though single readings scatter; tested in HEK293 cells; note: % is set by controls: 0 for no effect and ±100 for the full control effect; nearly all actives have a fitted effect of over 50% in size; luciferase read-out
# * hit, by the source's call; ? = inconclusive; nt = not tested or not shown; & = joins results of further samples; [ ] = another dose, or the depositor's remark. Unless noted, calls come from the whole dose curve; as a rule, active = well fitted curve in the direction sought with a large enough effect; inconclusive = small, poorly fitted or top-dose-only effect, or another doubt; inactive = no such curve, though single readings can be large; an effect the other way counts as inactive or inconclusive. Potency is the fitted concentration of half-maximal effect. Compounds as they come, and some 4.5% of all compounds hit somewhere here.
SMILES,RE007 growth inh,StopGo reporter,SARS PLP yeast,NS1 function inh,Cruzain inh noDet,Marburg entry inh,Cruzain Triton,LASV entry inh
Oc1ccccc1-c1nc(/C=C/c2ccc(F)cc2)no1,nt,-6%,nt,nt,15%,?,-1.3%,24%[46.1 µM]
CC(=O)Nc1ccc(S(=O)(=O)N(C)CC(=O)N/N=C/c2cccc(O)c2)cc1,-16%,-9%,0%,-3%,nt,-7%[46.1 µM],nt,0%
CCC(CC)c1nnc(NC(=O)Cc2ccccc2[N+](=O)[O-])s1,-2%,6%,0%,-2%,nt,-2%[46.1 µM],nt,-8%
Cc1nc(SCn2nnc3ccccc3c2=O)c2c(C)c(C)sc2n1,nt,nt,11%,11%,2%,nt,1.8%,nt
Cc1cc(NC(=O)CCl)n(-c2nc3ccccc3s2)n1,25%,-4%,-2%,nt,nt,2%,nt,7%
Cc1nc(Nc2ccccc2)sc1C(=O)c1ccccc1,-27%,15%,-5%,-9%,nt,9%[46.1 µM],nt,?
CCCCn1c(N)c(N(CC(C)C)C(=O)c2cc3c(s2)CCC3)c(=O)[nH]c1=O,-4%,-14%,1%,nt,nt,-3%[46.1 µM],nt,6%
COc1cccc(/C=N/NC(=O)c2cnccn2)c1O,-11%,13%,2%,2%,nt,nt,nt,nt
CSc1ccc(/C=N/n2c(C3CCCCC3)n[nH]c2=S)cc1,-7%,-10%,0%,-3%,nt,?,nt,?
COc1cccc(C2c3c(-c4cc(Cl)c(C)cc4O)n[nH]c3C(=O)N2Cc2cccnc2)c1 (stereo not given),37%,-30%,11%,0%,-1%,-29%,-2.5%,?
S=C1NC2=C(CCCC2=C2SCCS2)C(c2ccccc2)N1 (stereo not given),-18%,-6%,2%,nt,nt,-29%[14.2 µM],nt,?
O=C1CC(N(O)C2CC(=O)N(Cc3ccccc3)C2=O)C(=O)N1Cc1ccccc1 (stereo not given),45µM*,?,-30%,-50%,-20%,?,-0.5%,-7%
S=C(NCc1ccccc1)NCc1ccco1,-3%,2%,8%,9%,nt,1%[46.1 µM],nt,7%[46.1 µM]
COc1ccccc1P(=O)(Cc1ccccc1[N+](=O)[O-])c1ccccc1 (stereo not given),8%,-11%,8%,8%,nt,?,nt,-15%[46.1 µM]
COCCCNC(=O)c1cc(-c2cccnc2)nc2ccccc12,4%,-1%&-7%,-2%,6%,-1%,9%&9%[46.1 µM],-0.6%,-15%&7%[46.1 µM]
O=C(N/N=C/c1ccccc1OC(F)F)C1=COCCO1,3%,47%[activator],0%,nt,nt,20%[46.1 µM],nt,9%
CN1c2ccccc2-c2nc(SCC(=O)Nc3ccccc3C(F)(F)F)ncc2S1(=O)=O,nt,-7%,nt,nt,26%,nt,-3.6%,?
O=C(O)CNC(=S)N(Cc1cccs1)C1CCCCC1,1%,-8%,22%,5%,-8%,0%,-2.9%,11%
O=c1cc(CN2CCN(c3ccccn3)CC2)nc2sccn12,-8%,-11%,0%,3%,nt,nt,nt,nt
CC1(C)c2ccccc2N2CC(=O)NC21/C=C/c1ccco1 (stereo not given),-8%,-25%,0%,?,3%,-16%,3.5%,?
C=CCn1c(SCC(=O)N2CCOCC2)nc2sc(C)c(C)c2c1=O,-11%,13%,-3%,-3%,nt,-1%[46.1 µM],nt,2%
CC(=O)N(/N=C1\Sc2ccccc2C1=O)c1ccccc1C,-18%,11%,-5%,-50%,-15%,?,-1.6%,?
CCOC(=O)c1[nH]c(C)c(C(=O)OC)c1C,-4%,15%,0%,-30%,nt,?,nt,?
CSc1ccccc1NC(=S)Nc1cccc(C(F)(F)F)c1,29%,4%,-7%,-8%,-3%,1%,3.3%,0%
O=C(NN1CCCCC1)c1cnn2c(C(F)F)cc(-c3ccccc3)nc12,10%,-22%,0%,3%,nt,11%[46.1 µM],nt,-19%[46.1 µM]
CCc1ccc(S(=O)(=O)c2n[nH]n3c2nc(=O)c2ccccc23)cc1,-17%,nt,19%,-6%,-12%,16%,-2.2%,24%
COc1ccc(NC(=O)CCN2CC(C)OC(C)C2)c(OC)c1 (stereo not given),7%,nt,-16%,-4%,3%,-3%,3.6%,5%
CSc1cccc(NC(=O)c2cccc3cccnc23)c1,-14%,14%,-63%,-58%,nt,?,nt,7%[46.1 µM]
Cc1cc(=O)[nH]c(SCC(=O)Nc2ccc(Cl)cn2)n1,2%,nt,5%,0%,?,7%,-29%,4%
O=C(COC(=O)/C=C/c1ccc(Cl)cc1)Nc1ccccc1-c1ccccc1,1%,-13%,4%,8%,10%,21%,-3.9%,10%

# Some of the entries above, reformatted:
# Values in the order – RE007 growth inh | StopGo reporter | SARS PLP yeast | NS1 function inh | Cruzain inh noDet | Marburg entry inh | Cruzain Triton | LASV entry inh
COc1ccc(NC(=O)CCN2CC(C)OC(C)C2)c(OC)c1 (stereo not given)
    7% | nt | -16% | -4% | 3% | -3% | 3.6% | 5%
CSc1cccc(NC(=O)c2cccc3cccnc23)c1
    -14% | 14% | -63% | -58% | nt | ? | nt | 7%[46.1 µM]
Cc1cc(=O)[nH]c(SCC(=O)Nc2ccc(Cl)cn2)n1
    2% | nt | 5% | 0% | ? | 7% | -29% | 4%

# (further entries)
SMILES,RE007 growth inh,StopGo reporter,SARS PLP yeast,NS1 function inh,Cruzain inh noDet,Marburg entry inh,Cruzain Triton,LASV entry inh
Cc1ccc(NS(=O)(=O)c2ccc3c(c2)CC(=O)N3)cc1F,-3%,44%[activator],2%,nt,nt,4%,nt,0%
Cc1ccc(CN(CC(=O)NC2CCCCC2)C(=O)c2csnn2)cc1,2%,21%,5%,2%,nt,10%[46.1 µM],nt,-13%[46.1 µM]
Cc1c(C(=O)OCC(=O)N2CC(=O)Nc3ccccc32)oc2ccc(Br)cc12,18%,-7%,4%,-4%,-17%,?,2.1%,-17%
CCCC(C)NC(=O)c1ccc2[nH]c3c(c2c1)CC(C)CC3 (stereo not given),-7%,28%,-7%,11µM*,0%,-16%,-8.5%,-29%
CCOc1ccc(N2C(=O)/C(=C\c3cccs3)C(=O)NC2=S)cc1,-6%,-92%,1%,nt,nt,-29%[46.1 µM],nt,3%
CCCCCc1nc2sc3c(c2c(=O)n1NC(=O)c1ccc([N+](=O)[O-])cc1)CC(C)(C)OC3,0%,-13%,-44%,-5%,-1%,?,-9.5%,?
CCCCS(=O)(=O)N1CCC(C(=O)Oc2ccc(Cl)cc2)CC1,34%,-6%,-6%,-7%,nt,nt,nt,nt
O=C1CCCC(O)=C1N=Nc1ccc(C(=O)O)cc1,0%,-7%,1%,13%,nt,nt,nt,nt
COc1cc2c(cc1OC)C(c1ccc(Br)cc1)NCC2 (stereo not given),4%,-4%,nt,nt,nt,?,nt,-14%[46.1 µM]
Cc1cc(C(=O)COC(=O)c2ccc[nH]c2=O)c(C)n1-c1ccc(Br)cc1,3%,-2%,-84%,13%,?,?,-7.2%,10%
COc1cc(OC)cc(OC(=O)c2cccc(S(=O)(=O)N3CCN(C)CC3)c2)c1,6%,-4%,-1%,nt,nt,-4%[46.1 µM],nt,-10%
O=C(NC1CCSc2ccccc21)c1c(F)cccc1Cl (stereo not given),-10%,-8%,-2%,-4%,nt,-7%[46.1 µM],nt,-5%[46.1 µM]
CCOC(=O)c1ccccc1NS(=O)(=O)c1ccc(S(=O)(=O)N2CCCC2)cc1,12%,nt,10%,-21%,20%,-17%,-3.1%,3%
CCOc1ccc(NC(=O)C(C)NS(=O)(=O)c2ccc(NC(C)=O)cc2)cc1 (stereo not given),16%,13%,-4%,nt,nt,-1%[46.1 µM],nt,nt
COc1ccccc1CCNC(=O)c1cc(-c2ccncc2)nc2ccc(Br)cc12,-5%,?,0%,5%,nt,?,nt,?
N#Cc1nc(-c2ccco2)oc1N1CCCC1,-1%,15%,-1%,-6%,26%,6%,-18%,2%
COc1ccc(CC(=O)OCC(=O)c2ccc(OC)c(OC)c2)cc1,8%,-21%,3%,nt,nt,8%,nt,-1%
Clc1ccc2nc3c(c(-c4ccccc4)c2c1)CNCC3,?,-20%,-3%,-4%,-2%,?,-4.7%,?
O=C(O)CC1Cc2ccccc2C1C(=O)O (stereo not given),21%,-7%,nt,nt,nt,3%,nt,-1%
O=C(O)c1cnn(-c2nc(-c3ccc(F)cc3)cs2)c1C(F)(F)F,14%,31%[activator],-1%,4%,nt,?,nt,-8%[46.1 µM]
Cc1ccc(C)c(NC(=O)NNC(=O)c2cc3occc3[nH]2)c1,-6%,3%,-4%,-5%,nt,nt,nt,nt
NC1=NC(c2cn[nH]c2-c2cccc(F)c2)n2c(nc3ccccc32)N1 (stereo not given),-2%,3%,2%,nt,nt,-15%[46.1 µM],nt,3%
CP(=O)(Nc1ccccc1)C(Cl)(Cl)Cl (stereo not given),-1%,1%,-1%,nt,nt,1%[46.1 µM],nt,12%
COc1ccccc1Oc1coc2c(CN(C)C)c(O)ccc2c1=O,-2%,-2%,5%,7%,-2%,9%,-0.5%,11%
COc1ccc(OC)c(/C=N/NC(=O)c2ccc3nc[nH]c3c2)c1,-3%,-9%,0%,0%,nt,1%[46.1 µM],nt,1%[46.1 µM]
Cc1nnc(SCc2ccc(C(=O)Nc3cc(Cl)ccc3C)cc2)s1,2%,-18%,16%,-8%,6%,?,-3.3%,-7%
CCOc1ccc(N=C2C(=O)N(CN3CCOCC3)c3ccccc32)cc1,-9%,-22%,-4%,0%,-3%,-13%[46.1 µM],-0.4%,-1%
